VACV Venus inh: qHTS for Stage-Specific Inhibitors of Vaccinia Orthopoxvirus: Venus Reporter Primary qHTS; Vaccinia virus Venus reporter expression, fluorescence; Potency, µM (doses to about 36.5 µM), for inactives: at the top dose activity change, negative = inhibition, hits mostly inhibitors; hit rate 0.46% among 330,000; AID 720580, 2013; active means well fitted inhibition curve with a large enough effect; inconclusive means small, poorly fitted or top-dose-only effect; inactive means no such curve, though single readings can be large or run the other way; tested in A549 cells; note: nearly all actives have a fitted effect of over 30% in size; inactives centre near -10
VACV mCherry inh: qHTS for Stage-Specific Inhibitors of Vaccinia Orthopoxvirus: mCherry Reporter Primary qHTS; Vaccinia virus mCherry reporter infection, fluorescence; about a quarter of the inactives have no number; hit rate 0.63% among 310,000; Potency, µM (top dose mostly 36.5 µM), for the others: at the top dose activity change, negative = inhibition, most hits filed as inhibitors; AID 720579, 2013; active = well fitted inhibition curve with a large enough effect; inconclusive = small, poorly fitted or top-dose-only effect; inactive = no such curve, though single readings can be large or run the other way; tested in A549 cells; note: nearly all actives have a fitted effect of over 35% in size; inactives centre near -10
* = called active by the depositor; i = inactive; ? = inconclusive; · = no result given; & = joins results of further samples; [ ] = another dose, or the depositor's remark. % is set by controls: 0 for no effect and ±100 for the full control effect; potency is the fitted concentration of half-maximal effect.

Compound	VACV mCherry inh	VACV Venus inh
Cc1cc(C)cc(SCc2noc(C(=O)NCCN(C)C)c2C(=O)NCCN(C)C)c1	0%	-9%
COc1ccc(CNS(=O)(=O)c2cc3c(cc2Cl)N(C(C)=O)CCO3)cc1	-1%[7.34 µM]	-6%[7.34 µM]
CSc1nnnn1-c1ccc(C(=O)O)cc1	·	-13%
COc1ccc(OCC(=O)Nc2ccc3nc(C)sc3c2)cc1	i	0%
Cc1ccc(S(=O)(=O)NCc2ccccc2)cc1C(=O)N1CCCC(C(F)(F)F)C1 (stereo not given)	-9%	?
CCC(=O)N1CCC1(C)C(=O)Nc1ccc(C)c(C)c1 (stereo not given)	40%[activator]	1%
COc1cc(OC)cc(C(=O)N2CCCc3ccccc32)c1	-1%	-11%
CCCCNc1c(-c2ccc(-c3cccc(Cl)c3)cc2)nc2ccc(Cl)cn12	?	-4%
Cc1ccc(Nc2cc(C)nc3ncnn23)c(C)c1	-29%	-22%
CCc1nc(SCc2ccc(OCC(C)C)cc2)n[nH]1	-22%	-20%
Cn1c(=O)c2c(nc(Cc3ccccc3)n2C)n(C)c1=O	i	-12%
Cc1ccccc1NC(=O)c1cc[n+]([O-])cc1	-5%	-6%
N#CC1=C(N)CCC1	-17%	-11%
CN1CCCC1c1cccnc1 (stereo not given)	4%&-16%&-9%	3%&-19%&-4%
CCN1CCN(C(=O)CN2C(=O)COc3ccc(C)cc32)CC1	-1%	6%
CCCN1C(=S)SC(C)(C)C1/[N+]([O-])=C/c1ccc(S(=O)(=O)NC)cc1 (stereo not given)	i	-6%
O=C(COc1ccc(Cl)cc1)N(Cc1ccco1)C1CCS(=O)(=O)C1 (stereo not given)	-19%	-15%
CCCCCCCCCC[n+]1cccc2cc(Cl)ccc21	?	?
CCOC(=O)c1c(N)n(CCOC(=O)c2cccs2)c2nc3ccccc3nc12	-13%	-7%
COc1ccc2nccnc2c1[N+](=O)[O-]	i	-14%
CN1CC(C(=O)c2ccc(Cl)cc2)C(c2ccccc2F)C1 (stereo not given)	-11%	-6%
CCN(CC)S(=O)(=O)c1ccc(C(=O)Nc2cc(C)on2)cc1	-11%	-3%
COC(=O)c1ccc(COC(=O)C(CCS(C)(=O)=O)N2C(=O)c3ccccc3C2=O)cc1 (stereo not given)	-11%	-5%
CCCC(=O)Nc1nc(-c2ccc(OC)cc2)cs1	·	-16%
O=C(CSc1ccc(Cl)cc1)NCC1CCCO1 (stereo not given)	·	8%
Cc1cccn2cc(CNC(=O)c3ccc(Br)o3)nc12	i	-4%
O=C(NCCCN1CCN(c2ccccc2)CC1)c1ccc2nc(Cc3ccccc3)oc2c1	-7%[7.34 µM]	-12%[7.34 µM]
Cc1ccccc1CN1C[C@H]2CON(C)[C@H]2C[C@H]1c1cccc(Br)c1	?	-17%
CC(C)CCN1C(=O)c2ccc(C(=O)N3CCCCC3)cc2C1=O	i	-7%
O=C(COc1ccc(Br)cc1)Nc1ccccc1C(=O)NC1CC1	-1%	-1%

Arranged by formula weight (smallest number first): some entries from above
Compound	VACV mCherry inh	VACV Venus inh
CC(C)CCN1C(=O)c2ccc(C(=O)N3CCCCC3)cc2C1=O	i	-7%
Cc1cccn2cc(CNC(=O)c3ccc(Br)o3)nc12	i	-4%
O=C(COc1ccc(Cl)cc1)N(Cc1ccco1)C1CCS(=O)(=O)C1 (stereo not given)	-19%	-15%

(continued)
Compound	VACV mCherry inh	VACV Venus inh
CN1CCN(C(=O)c2cc3nc(-c4ccccc4)cc(C(F)(F)F)n3n2)CC1	·	?
CN(C)CCCNc1nc(-c2ccccc2)nc2ccccc12	i	-16%
Cc1cccc(Cn2c(CN3CCC(C(=O)NC(C)C)CC3)cc3ccccc32)c1	-17%	-9%
CCn1c(CSCc2ccccc2)n[nH]c1=S	-5%	-2%
C#CCn1c(=NC(=O)CSC(C)=O)sc2cc(F)ccc21	10%	1%
CN(C)C(CNC(=S)Nc1ccc(F)cc1)c1cccnc1 (stereo not given)	i	-6%
O=C(Nc1n[nH]c(C(F)(F)F)n1)c1cccs1	i	13%
c1ccc(C2=Nn3c(Cn4nnc5ccccc54)nnc3SC2)cc1	i[7.34 µM]	-9%[7.34 µM]
Cc1ccccc1C(=O)Nc1ccccc1OCc1cc(=O)n2ccccc2n1	?	-18%
CNS(=O)(=O)Cc1ccc2[nH]cc(CCN(C)C)c2c1	-13%&9%	-2%&-15%&9%
Cc1ccccc1N/C(=N/S(=O)(=O)c1ccccc1)c1ccc(F)cc1	-24%	-19%
CC(=O)N1CCc2cc(CNS(=O)(=O)c3ccc(C(C)(C)C)cc3)ccc21	-6%	-10%
COCC1CCN(Cc2nc(COc3ccccc3)no2)C1 (stereo not given)	i	-5%
CCOc1ccc(CCNC(=O)Cn2ncn3c(cc4sc(C)cc43)c2=O)cc1OCC	1%	-5%
CCOc1ccc(C(=O)N/N=C/c2cc(Cl)ccc2[N+](=O)[O-])cc1	i	-12%

Next section, starting with the last four of the part before.
Compound	VACV mCherry inh	VACV Venus inh
CC(=O)N1CCc2cc(CNS(=O)(=O)c3ccc(C(C)(C)C)cc3)ccc21	-6%	-10%
COCC1CCN(Cc2nc(COc3ccccc3)no2)C1 (stereo not given)	i	-5%
CCOc1ccc(CCNC(=O)Cn2ncn3c(cc4sc(C)cc43)c2=O)cc1OCC	1%	-5%
CCOc1ccc(C(=O)N/N=C/c2cc(Cl)ccc2[N+](=O)[O-])cc1	i	-12%
CC(/C=N/NC(=O)c1cc(C(C)(C)C)[nH]n1)=C\c1ccccc1	·	-20%
COC(=O)CN1C(=O)[C@H]2[C@@H](c3ccc(C)o3)N3C(=O)CN(Cc4ccccn4)C(=O)[C@@]3(Cc3ccccc3)[C@H]2C1=O	-12%	-2%
O=C(CCN1C(=O)C2C3CCC(C3)C2C1=O)Nc1ccc(F)cc1 (stereo not given)	-18%	-4%
O=C(COC(=O)c1cccnc1Cl)Nc1nc(-c2ccccc2)cs1	-16%	-10%
COc1ccc(/C=N/NC(=O)COc2ccc3ccccc3c2)c(C(=O)O)c1OC	-12%	8%
Cc1c(NC(=O)CSc2nnc(-c3ccncc3)n2C)c(=O)n(-c2ccccc2)n1C	-28%	-3%
CCOC(=O)c1cnc2ccc(OCC)cc2c1N1CCN(c2cccc(Cl)c2)CC1	-25%	-5%
C/C(=N\NC(=O)CNc1cccc(C(F)(F)F)c1)c1cccc(Br)c1	-16%	-3%
COCC(=O)NC(C)c1nc2ccccc2[nH]1 (stereo not given)	-17%	-11%
Cc1sc2nc(C3CCCCC3)nc(SCC(=O)N3CC(=O)Nc4ccccc43)c2c1C	-12%	-9%
COc1ccc(OC)c(N(CC(=O)Nc2cccnc2)S(=O)(=O)c2ccc(C)cc2)c1	?	-29%
CCCn1c(N)c(N(CCOC)C(=O)C(C)Oc2ccc(F)cc2)c(=O)[nH]c1=O (stereo not given)	i	3%
Cc1ccc(C(=O)NCCNC(=O)COc2ccc(C)c(C)c2)cn1	7%	-6%
O=C(Nc1ccc([N+](=O)[O-])cn1)c1ccc2c(c1)OCO2	-2%	-9%
O=C1CC(c2ccccc2)CC(O)=C1C=NC1CCCCC1 (stereo not given)	-2%	-23%
Cc1cccc(NC(=O)COC(=O)C2COc3ccccc3O2)c1C (stereo not given)	-14%	-16%
COCCCN1C(=O)C(=O)/C(=C(/O)c2ccc(S(=O)(=O)N3CCCCC3)cc2)C1c1ccc(O)cc1 (stereo not given)	i	-14%
Cc1ccc(NC(=O)COC(=O)CCc2c(C)nc3ncnn3c2C)cc1	i	-12%
CCOc1ccc(/C=N/NC(=O)c2ccc(O)cc2)cc1CN1CC2CC(C1)c1cccc(=O)n1C2 (stereo not given)	-22%	-11%
CN(Cc1ccnc2ccccc12)C(=O)C1CCC(=O)N(Cc2ccccc2F)C1 (stereo not given)	-11%	-13%
O=C(N=Nc1c(O)[nH]c2ccc(Br)cc12)c1cc(-c2cccs2)nc2ccccc12	?	-13%
COc1ccc(S(=O)(=O)N2CCN(CC(=O)Nc3ccccc3OC)CC2)cc1	0%	-12%
NS(=O)(=O)c1ccc(CNS(=O)(=O)c2cc(Cl)ccc2Cl)cc1	-17%	-16%
CCC(=O)Nc1cccc(C(=O)c2ccccc2)c1	-29%	-19%
NC(=O)CCC(NC(=O)c1ccc(Cl)cc1)C(=O)O (stereo not given)	i	-5%
C[C@@H]1CCCCO[C@H](CN(C)Cc2ccc(C(=O)O)cc2)[C@@H](C)CN([C@H](C)CO)C(=O)c2cc(NC(=O)CCC(F)(F)F)ccc2O1	-13%	-13%
CCOC(=O)c1ccccc1-c1csc(NS(=O)(=O)c2ccc(Cl)cc2)n1	-21%	-14%
COc1ccc(CCC(=O)Nc2nnc(C)s2)cc1	-13%	2%
Cc1ccc(Cc2c(C(C)(C)C)nc3ccc(Br)cn23)cc1	14%	-2%
O=C1CC(C(F)(F)C(F)(F)C(F)(F)C(F)F)=Nc2ccccc2N1	i	-14%

Of the compounds above, 3 have a nitro group on carbon:
Compound	VACV mCherry inh	VACV Venus inh
COc1ccc2nccnc2c1[N+](=O)[O-]	i	-14%
CCOc1ccc(C(=O)N/N=C/c2cc(Cl)ccc2[N+](=O)[O-])cc1	i	-12%
O=C(Nc1ccc([N+](=O)[O-])cn1)c1ccc2c(c1)OCO2	-2%	-9%

Other structures follow.
Compound	VACV mCherry inh	VACV Venus inh
COc1ccc(CNc2nc3c(S(=O)(=O)c4ccccc4)nnn3c3ccc(Cl)cc23)cc1	-18%	-18%
CC(=O)N(CC#CCN(C(C)=O)c1ccccc1)c1ccccc1	-21%	-25%
CC(NC(=O)c1ccccc1F)c1nnc(SCc2nc3ccccc3c(=O)[nH]2)n1C (stereo not given)	i	-6%
COc1cccc(CN2CCC(Oc3ccc(C(=O)N4CCCCC4)cc3)CC2)c1O	i	-12%
Cc1ccc(C)c(CNC(=O)c2ccc3c(c2)nc2n3CCCCC2)c1	-5%	0%
Cn1c(CSCc2ccccc2Cl)n[nH]c1=S	-5%	-15%
Cc1ccc(C)c(S(=O)(=O)N2CCNCC2)c1	-16%	-4%
CCc1ccc(S(=O)(=O)NCc2cn3ccsc3n2)s1	-15%	-11%
CC(=O)c1ccc(NC(=O)Nc2ccccc2)cc1	-12%	-7%
CN(C)C(=O)c1ccc(NC(=O)CC2SC(N3CCCC3)=NC2=O)cc1 (stereo not given)	-11%	-20%
Cc1cc(=O)oc(C)c1C(=O)Nc1cccc2ccccc12	-14%	-6%
CCCCCCCCCCCCCCCC[n+]1ccc(/C=C/c2c(C)[nH]c3ccccc23)cc1	?	?
COc1ccc(OC)c(CNC(=O)c2nn(C)c3c2CSc2ccccc2-3)c1	-5%	1%
COc1ccc(/C=N/NC(=O)c2cccc([N+](=O)[O-])c2)cc1O	-17%	-27%
CN(C)c1ccc(N=Cc2cccn2C)cc1	?	?
CCn1c(SCC(=O)NCC2CCCO2)nnc1-c1ccccc1 (stereo not given)	·	-19%
Cc1ccc(C)c(N2CCN(C3CCCC(C)C3)CC2)c1 (stereo not given)	-29%	-13%
N#Cc1ccc(CN2CCN(CC(=O)NCCc3ccc(Cl)cc3Cl)CC2)cc1	-27%	-23%
COc1ccc(S(=O)(=O)N2CCOC23CCN(S(=O)(=O)c2ccc([N+](=O)[O-])cc2)CC3)cc1	-23%	-12%
